ClpP mod: qHTS Assay for Activators of ClpP. AID 651965, 2013. Potency, µM (titrated, usually from 57.5 µM), for inactives: at the top dose activity change, negative = active. purified B. subtilis ClpP, FRET peptide cleavage, 20 min. ATP-dependent Clp protease proteolytic subunit (Bacillus subtilis (strain 168)), P80244. actives 1.9% (n = 340,000); active = well fitted falling curve with a large enough effect; inconclusive = small, poorly fitted or top-dose-only effect; inactive = no such curve, though single readings can be large or run the other way; also: potency is read from the fitted curve at half-maximal effect; the source files actives as falling curves though it sought activators and does not explain the sign; nearly all actives have a fitted effect of over 65% in size; many hits overshoot -100%
Target sequence (P80244 whole entry, looked up): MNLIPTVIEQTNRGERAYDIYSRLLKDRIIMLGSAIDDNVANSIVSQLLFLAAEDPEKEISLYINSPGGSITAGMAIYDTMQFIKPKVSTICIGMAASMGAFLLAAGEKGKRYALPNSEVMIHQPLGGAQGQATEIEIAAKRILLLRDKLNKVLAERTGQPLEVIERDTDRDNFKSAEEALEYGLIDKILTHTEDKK
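Purified B. subtilis ClpP, 10 microg/mL final in Tris/HCl pH8 with KCl, BSA, glycerol and Tween-20, cleaved an Abz/nitrotyrosine-quenched decapeptide. Fluorescence (ex 320, em 430) was read at 0 and 20 min at room temperature. Delta was normalized to 5.8 microM ADEP and DMSO/no-enzyme controls.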
Sfp inh: qHTS Assay for Inhibitors of Bacillus subtilis Sfp phosphopantetheinyl transferase (PPTase). 4'-phosphopantetheinyl transferase ffp (Bacillus subtilis), Q9F4F7. Biochemical Sfp PPTase activity, qHTS. Potency, µM, for inactives: max response, negative = inhibition, most hits filed as inhibitors. actives 3.5% (n = 310,000). AID 1490, 2009; active = well fitted inhibition curve with a large enough effect; inconclusive = small, poorly fitted or top-dose-only effect, or another doubt; inactive = no such curve, though single readings can be large or run the other way;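 also: the enzyme is Sfp with the accession as filed and its product quenches rhodamine fluorescence; potency is read from the fitted curve at half-maximal effect; 0% = enzyme reaction without inhibitor and -100% = no enzyme wells; top concentration of the series not given in the record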
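Fluorescence-quenching assay: 15 nM Sfp-PPTase preincubated 15 min at room temperature with compound, then 5 uM rhodamine-CoA and 12.5 uM BHQ-2-labelled YbbR peptide added. Fluorescence (ex 525/em 598 nm) read at start and after 30 min; difference gives rate.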
gsp antagonist: qHTS for Antagonists of gsp, the Etiologic Mutation Responsible for Fibrous Dysplasia/McCune-Albright Syndrome: qHTS. gsp-mutant cells, cAMP HTRF, 30 min; control for the full effect not named in the record. Potency, µM (titrated, usually from 76.9 µM), for inactives: top-dose activity change, negative = inhibition, hits mostly inhibitors. actives 0.4% (n = 340,000). AID 624288, 2012; active = falling curve of any shape with a large fitted effect; inconclusive = falling curve, mostly with a smaller effect; inactive = flat or rising curve; cell line not stated here;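 also: intracellular cAMP measured with PDE inhibitor Ro 20-1724 present during compound exposure; potency is read from the fitted curve at half-maximal effect; % is scaled to controls: 0 for no effect and ±100 for the full control effect; nearly all actives have a fitted effect of over 65% in size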
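HTRF cAMP measurement after 30 min RT detection following 30 min, 37C compound treatment alongside […] (added as 300 uM solution) in G418-selected cells seeded at 2000/well and grown 16–24 h.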
TRPV1 potentiator: HTS Assay for Compounds that Act as Potentiators of the Vanilloid Receptor 1; AID 540277, 2011; potentiation, % at 8.33 µM; actives 0.02% (n = 320,000); TRPV1-expressing cells, Fluo-8 calcium influx, capsaicin EC20 potentiation; host cell line not named in the record; control for the full effect not named in the record; active means potentiation above 80%; inconclusive means 30% to 80%; inactive means below 30%; also: 0% is about no effect
Target sequence (Q8NER1 whole entry, looked up): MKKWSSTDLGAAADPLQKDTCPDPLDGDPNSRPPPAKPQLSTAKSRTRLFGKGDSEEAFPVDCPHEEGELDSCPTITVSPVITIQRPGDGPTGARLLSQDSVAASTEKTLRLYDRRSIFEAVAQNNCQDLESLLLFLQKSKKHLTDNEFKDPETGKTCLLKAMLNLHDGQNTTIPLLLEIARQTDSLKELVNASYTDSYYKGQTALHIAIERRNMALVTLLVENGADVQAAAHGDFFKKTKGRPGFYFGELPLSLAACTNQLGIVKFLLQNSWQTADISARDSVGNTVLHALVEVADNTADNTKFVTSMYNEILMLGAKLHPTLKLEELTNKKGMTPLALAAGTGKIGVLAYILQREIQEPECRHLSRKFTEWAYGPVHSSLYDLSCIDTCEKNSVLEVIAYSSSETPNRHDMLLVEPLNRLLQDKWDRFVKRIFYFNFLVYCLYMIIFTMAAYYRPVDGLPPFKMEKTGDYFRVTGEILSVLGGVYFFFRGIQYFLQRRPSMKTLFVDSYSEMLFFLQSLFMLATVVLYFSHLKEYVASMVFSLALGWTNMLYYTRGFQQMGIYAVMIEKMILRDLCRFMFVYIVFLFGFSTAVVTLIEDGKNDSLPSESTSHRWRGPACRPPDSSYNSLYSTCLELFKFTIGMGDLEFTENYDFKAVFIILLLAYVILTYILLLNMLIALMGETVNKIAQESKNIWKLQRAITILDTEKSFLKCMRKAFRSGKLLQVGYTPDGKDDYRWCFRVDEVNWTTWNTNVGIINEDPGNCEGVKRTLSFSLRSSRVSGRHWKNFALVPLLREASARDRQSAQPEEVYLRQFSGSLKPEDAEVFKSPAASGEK
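TRPV1-expressing cells were cultured overnight at 35.5C and loaded with Fluo-8 calcium dye for 40 to 90 min at room temperature. After a 10 s baseline, compound was added and calcium influx was read kinetically for 3 min (ex 480/em 520 nm).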
gsp ag: qHTS for Agonist of gsp, the Etiologic Mutation Responsible for Fibrous Dysplasia/McCune-Albright Syndrome: qHTS; gsp mutant cells, cAMP HTRF, 30 min; control for the full effect not named in the record; Potency, µM (top dose mostly 76.9 µM), for the others: at the top dose activation (cAMP increase), most hits filed as activators; actives 0.13% (n = 340,000); AID 624287, 2012; active = well fitted activation curve with a large enough effect; inconclusive = small, poorly fitted or top-dose-only effect, or another doubt; inactive = no such curve, though single readings can be large or run the other way; cell line not stated here;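 also: phosphodiesterase inhibitor Ro 20-1724 added with compounds to block cAMP breakdown; potency is read from the fitted curve at half-maximal effect; nearly all actives have a fitted effect of over 60% in size; about a fifth of the inactives were tested at one dose only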
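Cells stably selected in G418 were plated at 2000/well, grown 16-24 hr, then given compounds in DMSO with the PDE inhibitor […] (300 uM solution added) for 30 min at 37C; cAMP was read by HTRF.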
Menin-MLL FL inh: qHTS Assay for Inhibitors Targeting the Menin-MLL Interaction in MLL Related Leukemias: Competition With Fluorescein Labeled MLL-derived Peptide; FP activity change, % at 61.4 µM; Fluorescence polarization, fluorescein-MLL peptide displacement from menin; 290,000 tested, under 10 active; AID 1766, 2009; inconclusive = falling polarisation curve, or a change in total fluorescence; inactive = total fluorescence flat and polarisation flat or rising; no compound was filed as active; the % refers to the polarisation; negative = inhibition;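 also: % of control where 0% means no effect; inhibitors lower the polarisation; unlabelled MLL peptide was the positive control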
TRPML1 inh: qHTS for Inhibitors of the Human Mucolipin Transient Receptor Potential 1 (TRPML1) | Mucolipin-1 (Homo sapiens), Q9GZU1 | TRPML1-inducible cells, Ca2+ dye fluorescence, FDSS; hits give low values; inhibition of EC80 agonist-evoked calcium signal | activity change, negative = inhibition, % (no concentration beside the values) | actives 0.02% (n = 390,000); in the data active means activity change below about -50%; inconclusive means about -30% to -50%; inactive means above about -30%;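 also: stimulus is agonist 54-4 at its EC80 concentration; % is scaled to controls: 0 for no effect and ±100 for the full control effect; compound concentration not given in the record; the text of the record puts the active cut at -80%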
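TRPML1-DL cells, Tet-induced overnight (~16 h, 37 °C) at 1,500 cells/well, were loaded with Ca8 no-wash dye plus quencher for 45-90 min at room temperature. Compounds were pinned during FDSS kinetic reading; agonist 54-4 at EC80 (4 uM final) then added.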
An asterisk follows results filed as active; ? = inconclusive; / = not tested or not shown; & = joins results of further samples; [ ] = another dose, or the depositor's remark.

SMILES	ClpP mod	Sfp inh	gsp antagonist	TRPV1 potentiator	gsp ag	Menin-MLL FL inh	TRPML1 inh
CCNc1nn2ccccc2c1/C=C(\C#N)C(=O)OCC	-5.6%	18%	-4%	-2	-18%	-0.9	-5
C=CCOc1ccc(CN(C)Cc2nc3cc(C(F)(F)F)ccc3c(=O)[nH]2)cc1	0.3%	5%	-9%	8	-35%[inhibitor]	3.2	-21
Cn1c(=O)c(=O)n(C)c2cc(S(=O)(=O)N3CCC(N4CCCCC4)CC3)ccc21	?	/	17%	/	32%	/	-4
COc1ccc(NC(=O)COc2ncnc3ccccc23)cc1S(=O)(=O)N1CCOCC1	/	12%	1%	-7	23%[15.4 µM]	-8.6	-7
CC1CC(C)CN(S(=O)(=O)c2ccc(Cl)cc2)C1 (stereo not given)	-0.2%	8%	-14%	7	-16%[15.4 µM]	-9.1	48
O=C(c1cc(C2CC2)on1)N1CCN(c2ccccc2)CC1	0.0%	?	4%	4	?	1.9	6
CCOc1ccc(-n2nnc3c(=O)n(CC(=O)Nc4cc(C)on4)cnc32)cc1	/	-2%	-8%	-4	-3%[15.4 µM]	-0.4	-1
CCOC(=O)c1nn(-c2ccc3c(c2)CCN3C(C)=O)cc1O	?	2%	4%	-7	?	1.0	11
OCCNCCO	-1.0%	19%	6%	5	/	-0.5	/
CN(C)CCNC(=O)c1ccc(CS(=O)(=O)c2ccc(Br)cc2)o1	-1.5%	/	1%	/	-3%	/	-16
Cn1cc(CN(CCO)Cc2cccs2)c(-c2ccccc2F)n1	-2.4%	12%	-4%	9	6%	0.3	19
COC(=O)c1[nH]c2ccccc2c1NC(=O)C(C)N1CCOCC1 (stereo not given)	-24%	-5%	3%	4	-31%[inhibitor]	4.5	9
CCS(=O)(=O)n1nc(-c2ccc(C)cc2)nc1N	-2.3%	9%	-4%	-12	7%	0.5	-14
CC(=O)OCC(=O)C1(O)CCC2C3CCC4=CC(=O)CCC4(C)C3(F)C(O)CC21C (stereo not given)	0.6%	/	0%	/	6%[15.4 µM]	/	21
Cc1c(C=O)c2ccccn2c1C(=O)c1ccc(Cl)c([N+](=O)[O-])c1	/	9%	/	6	8%[15.4 µM]	-1.1	-2
CCCCN(CC(=O)NC1CC1)S(=O)(=O)c1ccc(OCC)cc1	-1.8%	/	6%	7	-1%	/	2
CC(=O)Nc1cccc(NC(=O)CSc2nnnn2Cc2ccccc2)c1	3.6%	0%	?	4	12%	0.8	-1
CC1CCCCN1CCCNC(=O)Cn1ncc2c([nH]c3ccccc32)c1=O (stereo not given)	3.2%&5.2%	3%	5%	6	-40%[inhibitor]	3.7	?
O=C(Nc1ccccc1)Nc1sccc1-c1nc2ccccc2s1	/	?	0%	0	14%[15.4 µM]	7.1	3
Cc1ccc2cc(C)c(N3CCN(c4ccccn4)CC3)nc2c1	?	?	?	-13	26%	1.9	-16
Cc1cccn2cc(CSc3ccccc3N)nc12	0.6%	?	-2%	-18	2%	-1.2	3
COc1cc(OC)cc(-c2sc3ccc(OC)cc3c2C#CC2(N)CCCCC2)c1	4.1%	/	6%	/	/	/	21
O=C1c2ccccc2C(=O)N1CC1c2ccccc2CCN1S(=O)(=O)c1ccccc1 (stereo not given)	3.1%	10%	-23%	2	5%	1.2	14
Cc1nccn1-c1ncnc2sc3c(c12)CCCC3	-3.1%	9%	-3%	1	7%	2.8	2
C=CCC[C@H](Cc1ccc(F)cc1)C(=O)OC[C@@H](NC(=O)[C@@H](CC=C)CC(=O)N[C@@H](CO)Cc1ccccc1)C(C)(C)C	2.5%	/	-8%	/	13%	/	74
O=C(NCCNC(=O)c1ccco1)c1ccc(F)cc1	/	23%	-42%	-3	21%[15.4 µM]	3.8	11
CCCCOC(=O)c1cc(Cl)c(O)c(OC)c1	/	-5%	5%	2	-3%[15.4 µM]	-1.3	1
CC(C)CCNC(=O)CN(C(=O)Cn1nnc(-c2ccc(F)cc2)n1)C1CCCC1	-3.0%	2%	6%	-33	-5%	-7.3	9
CCOc1cccc(C(=O)NCc2ccccc2)c1	/	13%	9%	0	13%[15.4 µM]	1.2	-9
COc1ccc(-c2csc(N3CCN(S(=O)(=O)c4ccc5c(c4)NC(=O)CO5)CC3)n2)cc1	0.5%	1%	-12%	-4	-45%[inhibitor]	/	-8
O=C(Nc1cccc(C(=O)Nc2ccccc2C(=O)O)c1)c1cccc(Cl)c1	-4.4%	/	-5%	/	-25%	/	-21
O=C(c1ccccc1)N(Cc1cccnc1)C1(C(=O)Nc2ccccc2)CCCCC1	-1.6%	-12%	-4%	-8	16%	9.7	26
FC(F)(F)c1ccccc1NC(=S)N1CCN(c2ccccn2)CC1	-14%	7%	-2%	5	-63%[inhibitor]	-3.9	30
CC(C)(C)c1ccc(C(=O)N2CCC(C(=O)NC3CC3)CC2)cc1	/	12%	11%	2	22%	/	4
Fc1ccc(CNC(=S)Nc2cccc(C(F)(F)F)c2)cc1	?	-5%	-4%	9	1%	-2.2	-2
COc1ccc(Cl)cc1Nc1nnc(-c2ccncc2)s1	0.7%	-15%	13%	1	-25%	-1.9	/
C#CCSc1nnnn1-c1cccc(Cl)c1	/	23%	-12%	-1	7%	-0.9	21
CCC(=O)Oc1ccc(C(=O)Nc2cccc(C(=O)NCC(C)C)c2)cc1	/	17%	-1%	16	13%[15.4 µM]	0.0	-20
COc1ccc([N+](=O)[O-])cc1NC(=O)CSc1ccccc1	0.6%	7%	-21%	-4	-9%	5.7	-6
COc1ccc2c(c1)[nH]c1c(=O)n(Cc3ccccn3)cnc12	-8.2%	20%	-10%	-3	4%	-0.3	-3
Cc1ccc(N2C(=O)c3ccc(C(=O)Nc4cccnc4)cc3C2=O)c(C)c1	-3.8%	0%	?	-20	-10%	-0.6	0
Cc1cc(C)n(S(=O)(=O)c2cc(Cl)ccc2Cl)n1	3.0%	0%	-11%	-5	-16%	-0.1	-10
CC(C)c1ccc(/C=N/Nc2cc(N3CCOCC3)nc(N3CCOCC3)n2)cc1	-8.4%	-10%	-11%	10	-9%[15.4 µM]	5.5	14
Cc1c(Cl)ccc2c1NC(=O)[C@]21[C@@H]2C(=O)N(Cc3ccccc3)C(=O)[C@@H]2[C@@H]2CCCN21	-1.3%	8%	-4%	2	1%	?	-14
CC(C)N(C)NC(=S)Nc1ccccc1	-3.8%	4%	23%	-2	3%	8.4	1
NC(=O)c1cc([N+](=O)[O-])cc2c1C=Cc1ccccc1O2	0.6%	17%	-14%	21	-2%[15.4 µM]	-1.4	-8
O=C(NC(CC(=O)N1CCN(c2ccccc2)CC1)c1ccccc1)c1ccccc1 (stereo not given)	-0.4%	/	/	/	-22%	/	1
C(=N\Nc1nc2ccccc2[nH]1)/c1cccc2nccnc12	/	10%	-13%	-9	-11%[15.4 µM]	1.1	5
Cc1noc(C)c1S(=O)(=O)N(C)C[C@H]1Oc2ccc(NS(=O)(=O)c3ccc(F)cc3)cc2C(=O)N([C@H](C)CO)C[C@@H]1C	0.6%	/	-6%	/	/	/	-6
Cc1ccc(/C=C/S(=O)(=O)NCCC(=O)NCc2ccccc2F)cc1	/	/	-8%	/	-38%[inhibitor]	/	3
Later entries.
SMILES	ClpP mod	Sfp inh	gsp antagonist	TRPV1 potentiator	gsp ag	Menin-MLL FL inh	TRPML1 inh
CC(=O)c1c(C)nn(C(=O)c2cccs2)c1C	0.1%	10%	1%	?	?	-0.8	3
Cc1nn2cc(-c3ccc(Cl)cc3)cnc2c1Br	/	-12%	8.9µM*	-2	6%[15.4 µM]	-0.1	11
CCN1CCN(C(=S)NC(=O)/C=C/c2cccs2)CC1	-2.3%	-9%	5%	12	35%	1.1	25
CCc1c(C)c(C#N)c2nc3ccccc3n2c1Nc1c(C)n(C)n(-c2ccccc2)c1=O	5.0%	19%	8%	-1	0%	1.6	-2
COc1cc(C(=O)NCC(c2cccs2)N2CCc3ccccc32)cc(OC)c1OC (stereo not given)	/	/	?	-20	-19%[15.4 µM]	/	2
CN(c1ccccc1)S(=O)(=O)c1ccc2c(c1)OCCO2	-2.6%	/	9%	/	-70%	/	-10
COc1ccc(C(C(=O)NC2CCCC2)N(C(=O)c2ccco2)c2ccc(OC)c(OC)c2)cc1 (stereo not given)	-1.0%	-5%	2%	2	-106%[inhibitor]	4.5	26
O=C(NC1CCC(O)CC1)c1cccnc1Sc1ccccc1Cl (stereo not given)	-1.4%	21%	9%	3	10%[15.4 µM]	/	8
C=C(C)C1CC=C(C)/C(=N/NC(=O)COc2cccc(C)c2)C1 (stereo not given)	0.3%	?	-3%	8	-19%	4.7	8
Cn1c(N)c(C(=O)COC(=O)/C=C/c2ccccc2)c(=O)n(C)c1=O	1.6%	/	-12%	/	4%[15.4 µM]	/	12
CC(C)N1CC=C2C(C#N)=C(N)C(C#N)(C#N)C(c3ccccc3)C2C1 (stereo not given)	?	0%	?	-22	-5%	?	0
CC(=O)Nc1ccn(C2CC3OCC(NC(=O)C(NC(=O)OC(C)(C)C)C(C)OCc4ccccc4)C3O2)c(=O)n1 (stereo not given)	/	8%	/	/	/	-6.8	6
CC(C)CN(C(=O)COC(=O)CCc1c[nH]c2ccccc12)C1CCS(=O)(=O)C1 (stereo not given)	-3.8%	3%	3%	-5	-3%	2.4	20
O=C(NC1CCCCCC1)C1CCN(C(=O)c2ccc(Br)cc2)CC1	-0.6%	9%	-3%	-1	2%	/	-9
COc1cc2c(cc1OC)CN(CC(=O)Nc1ccccc1C#N)CC2	?	22%	9%	4	15%	2.3	-9

Screening data: PubChem BioAssay, National Center for Advancing Translational Sciences (NCATS)
